NS1 inh = qHTS Assay for Inhibitors of Influenza NS1 Protein Function | Potency, µM (top dose mostly 46.1 µM), for the others: at the top dose activity, positive = more growth | S. cerevisiae slowed by influenza A NS1, growth recovery by OD600 | actives 0.4% (n = 270,000); further: actives are rising curves; nearly all actives have a fitted effect of over 50% in size
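Read-out: OD600 growth recovery of NS1-expressing budding yeast. Cells grown overnight at 30C in -URA glucose medium, washed, resuspended and diluted 1:100 in 2% galactose assay medium, pH 6.0. Same strain lacking NS1 served as positive control.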
SARS PLP yeast = qHTS of Yeast-based Assay for SARS-CoV PLP; S. cerevisiae expressing SARS-CoV PLpro, growth rescue; control for the full effect not named in the record; Potency, µM (series often up to 32.9 µM), without a hit: at the highest dose activity, positive = growth rescue; actives 0.19% (n = 330,000); AID 485353, 2010; further: 0% is about no effect; nearly all actives have a fitted effect of over 55% in size; growth read by luminescence after 48 h
LASV entry inh = qHTS for Inhibitors of binding or entry into cells for Lassa Virus | actives 1.2% (n = 300,000) | Potency, µM (series often up to 37.9 µM), for inactives: top-dose activity change, negative = inhibition, actives largely listed as inhibitors | Lassa virus pseudotype entry inhibition, cell reporter; control for the full effect not named in the record; active means well fitted inhibition curve with a large enough effect; inconclusive means small, poorly fitted or top-dose-only effect, or effect the other way; inactive means flat fitted curve, though single readings scatter; tested in HEK293 cells; further: on the % scale 0 is the no-effect control and ±100 the full control effect; nearly all actives have a fitted effect of over 50% in size; luciferase read-out
Cruzain noTriton = qHTS Assay for Promiscuous and Specific Inhibitors of Cruzain (without detergent). purified cruzain, Z-FR-AMC fluorescence, no detergent. Potency, µM, for the others: max response, negative = inhibition, hits mostly inhibitors. actives 2.3% (n = 200,000). AID 1476, 2009; active means well fitted curve in the direction sought with a large enough effect; inconclusive means small, poorly fitted or top-dose-only effect, or another doubt; inactive means no such curve, though single readings can be large; an effect the other way counts as inactive or inconclusive;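 further: plate controls were enzyme without inhibitor for no effect and buffer without enzyme for full effect; nearly all actives have a fitted effect of over 40% in size; top concentration of the series not given in the record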
Target sequence (P25779 123-467 limits assumed): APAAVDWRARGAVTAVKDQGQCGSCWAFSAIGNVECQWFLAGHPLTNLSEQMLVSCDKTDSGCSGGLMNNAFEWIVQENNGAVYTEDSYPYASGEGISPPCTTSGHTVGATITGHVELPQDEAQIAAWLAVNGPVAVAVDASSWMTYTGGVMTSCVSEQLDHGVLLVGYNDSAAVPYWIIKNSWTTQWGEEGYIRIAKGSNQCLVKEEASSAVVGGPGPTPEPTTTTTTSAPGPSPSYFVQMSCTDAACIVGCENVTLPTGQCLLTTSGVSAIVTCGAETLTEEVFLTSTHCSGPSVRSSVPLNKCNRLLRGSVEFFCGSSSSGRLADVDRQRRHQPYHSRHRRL
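Purified cruzain at 1.5 nM, pre-incubated 15 min with compound at room temperature in 100 mM sodium acetate pH 5.5, 5 mM DTT, 0.00005% Triton X-100. Reaction started with 2 uM Z-FR-AMC; AMC fluorescence increase over 60 s gives rate.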
Cruzain Triton = qHTS Assay for Promiscuous and Specific Inhibitors of Cruzain (with detergent). Potency, µM, for the others: max response, negative = inhibition, hits mostly inhibitors. actives 0.43% (n = 200,000). purified cruzain, Z-FR-AMC fluorescence, 0.01% Triton. AID 1478, 2009. Cruzipain (Trypanosoma cruzi), P25779; active means well fitted curve in the direction sought with a large enough effect; inconclusive means small, poorly fitted or top-dose-only effect, or another doubt; inactive means no such curve, though single readings can be large; an effect the other way counts as inactive or inconclusive;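 further: plate controls were neutral wells for no effect and buffer without enzyme for full effect; nearly all actives have a fitted effect of over 40% in size; top concentration of the series not given in the record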
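Detergent-containing arm of a paired screen for aggregation-based inhibition: 0.01% Triton X-100 present. Cruzain at 1.5 nM cleaved 2 uM Z-FR-AMC at pH 5.5 with 5 mM DTT; AMC fluorescence gain over 60 s measured activity.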
RE007 growth inh = qHTS Assay for Inhibitors of the HIV-1 protein Vpr; S. pombe RE007 Vpr strain, BacTiter-Glo ATP luminescence, 24 h; control for the full effect not named in the record; actives 0.21% (n = 360,000); AID 651644, 2012; Potency, µM (top dose mostly 92.2 µM), for inactives: at the highest dose activity change, negative = less growth; active = well fitted falling curve with a large enough effect; inconclusive = small, poorly fitted or top-dose-only effect; inactive = no such curve, though single readings can be large or run the other way;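 further: on the % scale 0 is the no-effect control and ±100 the full control effect; nearly all actives have a fitted effect of over 50% in size; the assay follows cell death caused by Vpr and the record does not say whether a fall means rescue or toxicity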
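Fission yeast strain RE007, carrying one chromosomally integrated HIV-1 vpr copy, was seeded at OD 0.01 in PMG+AL medium with 23 nL pinned compound. After 24 h at 30 °C and 99% humidity, viability was read by BacTiter-Glo luminescence.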
StopGo reporter = High Throughput Screening for Foot and Mouth Disease Virus Antivirals | human cells with a luciferase reporter of 2A StopGo recoding; control for the full effect not named in the record | Potency, µM (titrated, usually from 57.9 µM), without a hit: at the highest dose signal change, negative = less light | actives 1.2% (n = 410,000); active = well fitted falling curve with a large enough effect; inconclusive = small, poorly fitted or top-dose-only effect; inactive = no such curve, though single readings can be large or run the other way; tested in HEK293T cells; further: on the % scale 0 is the no-effect control and ±100 the full control effect; nearly all actives have a fitted effect of over 45% in size; luciferase light after 4 h
Marburg entry inh = qHTS for inhibitors of binding or entry into cells for Marburg Virus; Marburg virus pseudotyped entry inhibition, cell reporter; control for the full effect not named in the record; about a third of the inactives were read at about 46 µM; Potency, µM (titrated, usually from 37.8 µM), for the others: top-dose activity change, negative = inhibition, usual class: inhibitors; actives 1.8% (n = 300,000); AID 540276, 2011; active = well fitted inhibition curve with a large enough effect; inconclusive = small, poorly fitted or top-dose-only effect, or effect the other way; inactive = flat fitted curve, though single readings scatter; tested in HEK293 cells; about a fifth of its hits are not listed in these tables; further: on the % scale 0 is the no-effect control and ±100 the full control effect; luciferase read-out
The depositor's hits bear a star; ? = inconclusive; / = not tested or not shown; & = joins results of further samples; [ ] = remark or other dose. Unless noted, the call rests on the fitted dose curve; in most records, active means well fitted rising curve with a large enough effect; inconclusive means small, poorly fitted or top-dose-only effect; inactive means no such curve, though single readings can be large or run the other way. Potency means the concentration at half of the fitted maximal effect. An unsorted share of the library; 4.7% or so of the library scored in one or more.

Every second line gives: StopGo reporter	Cruzain Triton	RE007 growth inh	Marburg entry inh	SARS PLP yeast	Cruzain noTriton	LASV entry inh	NS1 inh
1) Cc1nnc(SCC(=O)N2CCN(c3ccccc3F)CC2)n1C1CC1
    4%	/	-11%	3%	-2%	/	5%[46.1 µM]	/
2) CC(=O)N1N=C(c2ccc3ccccc3c2)OC1(C)C
    2%	-5.2%	-13%	1%	4%	1%	?	-7%
3) O=C(CSc1nnc(-c2ccc(F)cc2)o1)N1CCCc2ccccc21
    2%	-4.4%	/	-1%[46.1 µM]	/	-16%	-1%[46.1 µM]	/
4) CSc1ccc(C(=O)C2CCCN(C(=O)CCc3cnn(C)c3)C2)cc1 (centres undefined)
    -17%	/	-9%	17%	?	/	-2%	-21%
5) CN(Cc1ccccc1)C(=O)COC(=O)C1CCN(S(=O)(=O)c2ccc(Cl)c(C(F)(F)F)c2)CC1
    -21%	/	2%	-18%[46.1 µM]	-4%	/	6%	/
6) CC(/C=C(\C)Nc1ccccc1)=Nc1ccccc1
    -10%	/	3%	?	-5%	/	/	1%
7) COC(=O)CC1SC(=O)NC1=O (centres undefined)
    3%	3.3%	13%	0%	-1%	3%	0%	9%
8) COc1ccc(C2/C=C\CN(S(=O)(=O)c3cccc4cccnc34)CC(=O)N2Cc2ccc(F)cc2)cc1 (centres undefined)
    -13%	/	-4%	/	-8%	/	/	?
9) O=C(NCCN1CCN(c2cccc(Cl)c2)CC1)C1COc2ccccc2C1 (centres undefined)
    -27%	-2.3%	/	/	/	-1%	-22%[46.1 µM]	/
10) COc1cc(C2C(C(C)=O)=C(O)C(=O)N2CCc2ccc(OC)c(OC)c2)ccc1O (centres undefined)
    20%	-3.8%	7%	6%&6%	2%	-8%	3%	-2%
11) O=C(CC(Cc1ccccc1)c1ccco1)NC1CCCCC1 (centres undefined)
    -7%	-1.4%	0%	-19%	-8%	3%	-5%	-4%
12) O=C(OCc1nc2scc(-c3ccccc3)c2c(=O)[nH]1)c1cccc([N+](=O)[O-])c1
    -29%	-6.6%	4%	1%	18%	25µM*	9%	2%
13) CCN(CC)c1nn2c(=O)c(C(=O)NCCc3ccccc3)cnc2s1
    -9%	-4.1%	/	/	/	-4%	-11%[46.1 µM]	/
14) O=C(O)COc1ccc(Br)cc1/C=N/O
    8%	3.1%	9%	15%	4%	-15%	4%	-6%
15) FC(F)(F)c1cnc(COc2ccc(Cl)cc2Cl)c(Cl)c1
    19%	/	-23%	10%	-5%	/	0%	0%
16) CCOc1ccc(-c2nnc3ccc(SCC(=O)Nc4nc5ccccc5s4)nn23)cc1
    1%	-4.5%	-6%	?	?	?	6%	-12%
17) O=C(Nc1ccc(O)cc1)c1ccc(NC(=O)c2cccs2)cc1
    -1%	/	-10%	?	4%	/	?	-7%
18) CCc1ccc(C2C(C#N)=C(N)OC3=C2C(=O)CCC3)s1 (centres undefined)
    -16%	/	28%	6%	-1%	/	-16%	2%
19) CCOc1ccc(NC(=O)CCS(=O)(=O)c2cccc3nsnc23)cc1
    1%	-0.2%	14%	?	1%	-7%	14%	-6%
20) COC(=O)COc1cccc2c(=O)n(CC(=O)Nc3ccc4c(c3)OCCO4)ccc12
    ?	/	5%	/	0%	/	/	-3%
21) Cc1c(N=Cc2c(O)n(C3CCCCC3)c(=O)[nH]c2=O)c(=O)n(-c2ccccc2)n1C
    -23%	-2.5%	19%	?	-8%	-4%	2%	-2%
22) Cc1ccnc(NC(=O)Cc2ccc(F)cc2)n1
    11%	/	-2%	?	2%	/	8%[46.1 µM]	-8%
23) O=C(Cc1cccs1)Nc1ccc(C(=O)O)cc1
    -4%	1.7%	-4%	?	18%	-4%	5%	-4%
24) CCN(CC)S(=O)(=O)c1ccc(N2CCCC2)c(NC(=O)CN2C(=O)NC3(CCCC3)C2=O)c1
    -7%	/	3%	?	-5%	/	6%	/
25) CN1c2ccccc2-c2nc(SCC(=O)Nc3ccccc3)ncc2S1(=O)=O
    -30%	-4.5%	/	/	/	2%	-14%[46.1 µM]	/
26) COc1cccc(CNCc2cccn2-c2nnc(N3CCN(c4ccccc4)CC3)s2)c1
    ?	-3.4%	/	/	/	-9%	?	/
27) O=C(NC1(C(F)(F)F)NC(=O)N(C2CCCCC2)C1=O)c1cccs1 (centres undefined)
    /	-1.8%	0%	-3%	-1%	5%	6%	-8%
28) CCC1CCCCN1CCCNC(=O)c1cn(CC)c2ccc(S(=O)(=O)N3CCc4ccccc4C3)cc2c1=O (centres undefined)
    0%	/	-1%	?	0%	/	?	/
29) Cc1ccc(-c2ccc(=O)n(CC(=O)NCCc3ccc(Cl)cc3)n2)cc1
    -1%	0.8%	/	/	/	?	3%[46.1 µM]	/
30) Cc1c(N2C(=O)CSC2c2ccccc2)c(=O)n(-c2ccccc2)n1C (centres undefined)
    6%	/	4%	-1%	-1%	/	8%	1%

Reprinted from the part before: 2 compounds; new compounds follow.
Every second line gives: StopGo reporter	Cruzain Triton	RE007 growth inh	Marburg entry inh	SARS PLP yeast	Cruzain noTriton	LASV entry inh	NS1 inh
29) Cc1ccc(-c2ccc(=O)n(CC(=O)NCCc3ccc(Cl)cc3)n2)cc1
    -1%	0.8%	/	/	/	?	3%[46.1 µM]	/
30) Cc1c(N2C(=O)CSC2c2ccccc2)c(=O)n(-c2ccccc2)n1C (centres undefined)
    6%	/	4%	-1%	-1%	/	8%	1%
31) CCc1nc2ccccc2n1CCC(=O)O
    /	-0.7%	-4%	2%	12%	-9%	0%	1%
32) Cc1ccccc1Oc1ccc(NC(=O)C2CC=CCC2C(=O)O)cc1 (centres undefined)
    -14%	-3.9%	/	?	0%	-12%	17%	1%
33) C#CC1(O)CC(C)NCC1(C)CCC#N (centres undefined)
    -9%	3.5%	4%	-12%	-1%	-2%	15%	0%
34) COc1ccc(N2CCCCn3c2nc2c3c(=O)[nH]c(=O)n2C)cc1
    13%	-3.5%	-7%	?	-1%	-3%	-11%	1%
35) CCn1c(CN2CCCCC2)nc2cc(NC(=O)COc3ccc([N+](=O)[O-])cc3)ccc21
    ?	-3.3%	/	-19%[46.1 µM]	/	-5%	0%[46.1 µM]	/
36) Cc1ccccc1C(=O)NC1CCN(CC(=O)Nc2c(C)cccc2C)CC1
    ?	0.3%	-12%	-8%	-2%	-4%	-2%	5%
37) CCCCC(=O)Nc1ncc(Br)s1
    32%[activator]	5.7%	4%	26%	-2%	2%	8%	-4%
38) CCOc1ccc(C(=O)CCC(=O)NC(CC(C)C)C(=O)OC)cc1 (centres undefined)
    9%	/	16%	2%[46.1 µM]	0%	/	10%	/
39) CCC(CC)C(=O)Nc1ccc(-c2cn3cccnc3n2)cc1
    36%&37%[activator]	?	-5%	?	6%	-62%	4%[46.1 µM]	3%
40) Clc1ccc(N(CC2CO2)CC2CO2)cc1 (centres undefined)
    -10%	/	-4%	?	/	/	-20%	/
41) O=C(CCc1nc2ccccc2n1-c1ccccc1)NCCO
    5%	1.4%	-8%	?	1%	-3%	19%	13%
42) COc1ccccc1N1CCN(c2ccc([N+](=O)[O-])cc2Cl)CC1
    ?	-7.9%	-16%	?	-46%	7%	?	-14%
43) O=C(Nc1ccc2c(c1)OCO2)Nc1cnccn1
    15%	-1.8%	6%	-8%	-3%	-5%	1%	2%
44) [O-]/[N+](=C/c1ccc(F)cc1)c1ccccc1
    0%	0.6%	-2%	3%	-11%	-3%	-13%	-82%
45) CCOC(=O)C1CCN(c2ncnc3nc[nH]c23)CC1
    -5%	-4.8%	1%	-36%	10%	-1%	14%	-4%
46) COCC(=O)N1CCC(Oc2ccc(C(=O)NC3Cc4ccccc4C3)cc2)CC1
    ?	/	2%	0%	?	/	8%	-14%
47) COc1ccc(C2=C(Nc3ccc(C)c(C)c3)c3ccccc3C2=O)cc1
    -23%	-7.5%	/	0%[46.1 µM]	/	-26%	-17%[46.1 µM]	/
48) O=S(=O)(c1ccc2c(c1)CCN2)N1CCCCCC1
    2%	-4.6%	/	-2%[46.1 µM]	/	-4%	1%[46.1 µM]	/
49) Brc1ccc2c(c1)[C@H]1OCC[C@H]1[C@@H](c1cccs1)N2
    -12%	/	-8%	?	3%	/	-10%[46.1 µM]	12%
50) Cc1nnc(NC(=O)CSC2=NN3CCCC(=O)N=C3S2)s1
    -17%	/	0%	-2%	0%	/	22%	2%
51) Cc1cc(NC(=O)COC(=O)c2c(C)nn(Cc3ccccc3)c2C)no1
    -10%	5.4%	8%	?	19%	-15%	?	-2%
52) CCOC(=O)C1CCCN(C(=O)CN2C(=O)/C(=C/c3ccc(OC)cc3)Oc3ccccc32)C1 (centres undefined)
    -11%	-25%	6%	?	-47%	29%	?	0%
53) CCOc1ccc(N(C)C(=O)CS(=O)(=O)c2cccc3nsnc23)cc1
    -3%	-1.3%	/	/	/	-13%	-6%[46.1 µM]	/
54) Cc1ccc(OCc2n[nH]c(=S)n2C2CCCCC2)cc1
    /	-11%	-15%	-8%	-18%	2%	1%	0%
55) Cc1ccc2c(c1)N(CCC(=O)N1CCC3(CC1)OCCO3)C(=O)CO2
    -27%	5.6%	-3%	0%	3%	2%	10%	6%
56) c1ccc(-c2noc(CN3CCOCC3)n2)cc1
    42%[activator]	/	1%	?	4%	/	8%	4%
57) CCOc1ccc(NS(=O)(=O)c2ccc(C)c(C(N)=O)c2)cc1
    11%	/	-1%	/	-1%	/	/	2%
58) NC(Cc1ccc(O)cc1)c1cn([C@@H](CCC(=O)O)C(=O)N2CCNCC2)nn1 (some centres undefined)
    0%	/	1%	/	0%	/	/	-2%
